# Assay outcomes as filed in PubChem BioAssay.
# Rango release inh: inhibition of RanGTP-driven Rango-importin beta dissociation; 340,000 tested, 0.071% active; Biochemical FRET Rango-importin beta, RanGTP-induced dissociation; Potency, µM (highest dose often 46.1 µM), inactives show top-dose activity change, negative = inhibition; O95149+P62826; active means falling FRET ratio curve, often poorly fitted, with flat reads before Ran was added; inconclusive means other falling curves, or compound fluorescence or quenching; inactive means flat or rising ratio curve;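 note: potency is the fitted concentration of half-maximal effect; % of control where 0% means no effect; nearly all actives have a fitted effect of over 45% in size; -100% = wells without RanGTP and RCC1; the record marks most hits as doubtful in a second field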
#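 Compounds sat 5 min at room temperature with 0.1 uM Rango biosensor plus 0.25 uM importin beta, then FRET pre-read. RanGTP-RCC1 (0.6 uM Ran, 2mM GTP, 0.2 uM RCC1) added for 45 min, and the CFP/YFP post-read measured blocked complex dissociation.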
# GLA inh pH 4.5: inhibitors of human alpha-galactosidase A at pH 4.5; AID 1467; P06280; activity change, negative = inhibition, % at 105 µM; purified enzyme, 4-MU-alpha-Gal fluorescence, pH 4.5; 230,000 tested, under 10 active; inconclusive = small, poorly fitted or top-dose-only inhibition, or a rising curve; inactive = flat fitted curve, though single readings scatter; no compound was filed as active;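 note: 0% = full activity with enzyme and -100% = basal without enzyme; dose as in the result columns while the protocol names 77 µM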
# Target sequence (P06280 whole entry, looked up): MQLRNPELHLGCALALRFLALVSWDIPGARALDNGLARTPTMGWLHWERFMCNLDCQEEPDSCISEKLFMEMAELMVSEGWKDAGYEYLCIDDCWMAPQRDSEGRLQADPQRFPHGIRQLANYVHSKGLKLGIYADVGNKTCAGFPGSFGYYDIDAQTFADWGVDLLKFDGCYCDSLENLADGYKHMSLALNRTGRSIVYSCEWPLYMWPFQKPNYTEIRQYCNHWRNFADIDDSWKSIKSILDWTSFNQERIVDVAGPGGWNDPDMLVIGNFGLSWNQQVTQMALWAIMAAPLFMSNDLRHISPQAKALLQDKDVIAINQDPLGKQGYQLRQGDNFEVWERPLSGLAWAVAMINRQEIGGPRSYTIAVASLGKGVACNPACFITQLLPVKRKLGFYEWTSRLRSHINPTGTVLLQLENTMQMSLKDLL
# Rango complex inh: inhibitors of Rango-importin beta complex formation; Rango CFP/YFP FRET sensor + importin beta, 45 min; Potency, µM (highest dose often 92.2 µM), inactives show top-dose inhibition of complex formation; 340,000 tested, 0.031% active; AID 540263; active = rising FRET ratio curve, often small or poorly fitted; inconclusive = mostly compound fluorescence or quenching in the first reads; inactive = flat curves in all reads;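 note: potency is the fitted concentration of half-maximal effect; 0% = DMSO wells and 100% = buffer wells lacking importin beta; nearly all actives have a fitted effect of over 15% in size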
#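 Inhibition scored from the CFP 486 nm/YFP 530 nm FRET ratio 45 min after adding 0.125 microM importin beta to 50 nM Rango biosensor preincubated 5 min with compound (room temperature, PBS with DTT, Tween-20, BSA). No-importin wells as positive control.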
# miR-21 reporter: raises the signal of a miR-21 reporter; HeLa miR-21 FLuc reporter, luciferase, 48 h; 340,000 tested, under 10 active; Potency, µM (highest dose often 38.3 µM), without a hit: at the top dose reporter change, positive = more light; active = well fitted rising curve with a large enough effect; inconclusive = small, poorly fitted or top-dose-only effect; inactive = no such curve, though single readings can be large or run the other way;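 note: % of control where 0% means no effect; miR-21 action dims this reporter so a rising signal means less miR-21 action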
#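 HeLa cells endogenously expressing miR-21, stably carrying CMV-driven firefly luciferase with a downstream miR-21 binding site, 2000 cells/well. Titrations up to approximately 40 uM, 48 hours; luciferase luminescence read.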
# Starred values were filed as active, the others as inactive; ? = inconclusive; / = not tested or not shown. Only part of the results is shown (hit frequency here may not be typical).
# Values run as follows: Rango release inh	GLA inh pH 4.5	Rango complex inh	miR-21 reporter
CC(C)Cc1nnc(NS(=O)(=O)c2ccc(Cl)cc2)s1
  -1%	8	-1.5%	-15%
COc1ccc(NC(=S)NNc2ccc(S(=O)(=O)Nc3ccccc3C(=O)O)cc2[N+](=O)[O-])cc1
  20%	-27	1.8%	12%
Cc1cc(C)n2nc(/C(C#N)=C/c3ccccc3)c(C#N)c2n1
  -24%	-5	?	-13%
Cc1cccc2cc(CN(Cc3cccnc3)C(=S)NCCCN(C)C)c(=O)[nH]c12
  8%	-24	0.2%	-3%
COc1cccc2c1NC(C(=O)O)C1CC=CC21 (stereo unspecified)
  -13%	-18	?	4%
COC(=O)c1cc(C(=O)OCC(=O)c2ccc3c(c2)NC(=O)CO3)cc([N+](=O)[O-])c1
  0%	/	0.1%	/
O=S1(=O)CC(O)C(N2CCCCC2)C1 (stereo unspecified)
  7%	-5	-0.3%	0%
CCN(CC(=O)Nc1c(F)cccc1F)C(=O)CCOc1ccc(C)cc1
  10%	/	-0.6%	/
Cc1cc(C(=O)COC(=O)CC(NC(N)=O)c2ccc(Cl)cc2)c(C)n1C (stereo unspecified)
  -10%	/	-2.9%	/
Cc1ccc(-n2ncc3c(=O)n(CC(=O)NC4CCCCC4)cnc32)cc1C
  -7%	2	1.8%	0%
CCCNc1nc(N)nc(-c2cc(Cl)ccc2OC)n1
  -5%	8	0.7%	-9%
CCOC(=O)c1ccccc1NC(=O)/C=C/C(=O)O
  5%	1	0.0%	-6%
NNC(=O)C1=NOC2COC3(CCN(c4ncccn4)CC3)OCC12 (stereo unspecified)
  3%	-7	-0.8%	-6%
O=C(CCC(=O)N1CCN(c2ccc(O)cc2)CC1)c1ccc(Br)cc1
  /	7	/	12%
c1ccc(Cn2nnc(-c3ccccc3)n2)cc1
  1%	-5	-0.5%	-42%
CC(=O)c1c(O)cc2n(c1=O)-c1ccc(Cl)cc1C2(C)C
  -8%	4	6.8%	-2%
CCCC12CN3CC(C)(CN(C1)C3c1cccs1)C2=O (stereo unspecified)
  -5%	-6	3.1%	-4%
CC(Cl)C(=O)NN=C(c1ccccc1)c1ccccc1 (stereo unspecified)
  11%	5	0.8%	-5%
COc1ccc2c(c1OC)C(=O)N1c3ccccc3COC21 (stereo unspecified)
  16%	5	2.8%	-46%
O=C1CSc2cc(Cl)ccc2N1
  -15%	/	4.6%	/

# (more compounds)
# Values run as follows: Rango release inh	GLA inh pH 4.5	Rango complex inh	miR-21 reporter
CCOc1ccccc1NC(=O)c1ccc(C(=O)Nc2ccccc2OCC)nc1
  -2%	/	0.6%	2%
COCCCN1CN=C(Nc2nc3ccccc3o2)NC1
  17%	-19	-1.9%	-54%
CCOc1ccc(CCNc2ccc3nnc(-c4ccccc4)n3n2)cc1OCC
  2%	-5	-1.6%	3%
Cc1cc2cc(C(c3nnnn3Cc3ccccc3)N3CCc4ccccc43)c(=O)[nH]c2cc1C (stereo unspecified)
  -4%	-6	2.3%	-2%
C=CCN1C(=O)/C(=C\c2ccc(C)cc2)N=C1SCC(=O)NCCC
  -14%	5	-4.3%	-1%
CCOCCCNC(=O)/C(C#N)=C/c1cc(C)c(O)c(C)c1
  26µM*	-5	?	9%
O=C(Cc1ccccc1)Nc1ccc(N2CCOCC2)cc1
  -25%	1	?	-41%
CCOC(=O)c1c(NC(=O)CN2C(=O)CN(C)C2=O)sc(C)c1C
  -11%	14	-2.3%	-2%
CS(=O)(=O)Nc1ccc(N2CCN(c3ccc(C(F)(F)F)cn3)CC2)nc1
  -18%	0	0.1%	12%
Cc1nn(-c2ccc(Cl)cc2Cl)c(C)c1C(=O)O
  0%	2	0.0%	-1%
CC(Cl)C(=O)N1c2ccccc2CCc2ccccc21 (stereo unspecified)
  -2%	/	-1.9%	15%
CCCOc1ccc(C(=O)C(CN2CCOCC2)c2ccccc2)cc1 (stereo unspecified)
  -2%	-5	-3.4%	?
COC(=O)C1N[C@@H]([C@@H](NC(=O)COc2ccccc2)C(=O)NC2CC2)SC1(C)C (stereo partly specified)
  -3%	/	-2.0%	/
Cc1ccc(S(=O)(=O)NC(CC(N)=O)C(=O)O)cc1 (stereo unspecified)
  0%	8	4.3%	0%
COCCCN=CC1=C(O)CC(C)(C)CC1=O
  0%	-3	5.3%	-1%
COc1ccccc1C1(CCNC(C)c2cccs2)CCOC(C(C)C)C1 (stereo unspecified)
  9%	-9	-0.7%	20%
CCOc1ccccc1NC(=O)C1C2C=CC(O2)C1C(=O)O (stereo unspecified)
  16%	-2	1.0%	-2%
O=C(CCC(=O)c1cccs1)NCc1cccc(Cl)c1
  25%	/	-1.0%	/
C=CCn1c(SCc2ccc(Cl)cc2)nc2cc(C(=O)N3CCC(C(N)=O)CC3)ccc2c1=O
  9%	-3	-3.0%	0%
CCOc1cc(/C=N/NC(=O)c2nnn(-c3nonc3N)c2C)ccc1OCc1cccc(F)c1
  -12%	/	?	-2%

# Additional results:
# Values run as follows: Rango release inh	GLA inh pH 4.5	Rango complex inh	miR-21 reporter
CCOC(=O)c1c(CC(C)C)csc1NC(C)=O
  24%	-16	-7.3%	-2%
CCC(=O)Nc1sc(C(=O)Nc2ccccc2F)c(C)c1C(=O)OC
  -3%	6	-0.6%	1%
O=C(COC(=O)Cn1cnc2ccccc2c1=O)NCc1ccccc1
  -9%	/	0.9%	/
CC(C)(C)OC(=O)N[C@@H](Cc1ccccc1)C(=O)N[C@@H](CO)[C@H](O)[C@@H]1C[C@@H]1C(=O)N1CCCC1
  7%	/	2.9%	1%
COCc1cc(C)nc(SCC(=O)Nc2nc(C)cs2)c1C#N
  ?	/	?	0%
O=C(Cc1ccccc1)Nc1nc2ccccc2[nH]1
  -6%	-7	3.9%	-28%
O=C(/C=C/c1ccccc1)Nc1ccc(Br)cn1
  -11%	-4	-0.8%	-28%
Cc1ccccc1NC(=O)CSc1ccc(-c2cccnc2)nn1
  9%	/	-1.1%	-2%
N#Cc1c(NC(=O)CCCN2C(=O)c3ccccc3C2=O)oc(-c2ccccc2)c1-c1ccccc1
  19%	-2	1.5%	1%
Oc1ccccc1N1CCN(C(=S)NCc2ccccc2)CC1
  -1%	-4	0.0%	-4%
CC1CCCCC1NC(=O)CN1C(=O)NC(C)(c2ccc(OC(F)F)cc2)C1=O (stereo unspecified)
  0%	-9	2.3%	2%
COc1cc2[nH]c(=S)nc(NCCc3ccc(S(N)(=O)=O)cc3)c2cc1OC
  -1%	-3	-1.3%	-11%
O=C(COC(=O)c1ccccc1-c1ccccc1[N+](=O)[O-])c1ccccc1
  27%	-10	0.2%	-8%
O=C(N/N=C/c1ccc(OC(F)F)cc1)c1ccc(CSc2nc3ccccc3[nH]2)cc1
  34%	-10	-2.7%	-13%
COc1cccc(/C=N/n2c(N)c(S(=O)(=O)c3cccs3)c3nc4ccccc4nc32)c1
  2%	-2	-0.4%	-1%
CCN1CCN(c2cc3c(nn2)Oc2ccccc2N3C)CC1
  -3%	12	7.2%	-74%
CCCCc1c(C)[nH]c2nc3ccccc3n2c1=O
  -7%	/	-0.8%	-12%
O=C(c1ccc(Cl)c(S(=O)(=O)N2CCOCC2)c1)N1CCCC1
  12%	/	-4.4%	-2%
c1ccc(-c2csc3ncn4nnnc4c23)cc1
  32%	-19	5.3%	-6%
CC[C@]12c3[nH]c4ccc(OC)cc4c3CCN1C(=O)C(CC(=O)NCCCOC)C[C@@H]2C(=O)N1CCN(C(=O)C2CC2)CC1 (stereo partly specified)
  39%	/	-1.2%	/

# Some of the entries so far, comma-delimited:
Molecule,Rango release inh,GLA inh pH 4.5,Rango complex inh,miR-21 reporter
CCC(=O)Nc1sc(C(=O)Nc2ccccc2F)c(C)c1C(=O)OC,-3%,6,-0.6%,1%
Oc1ccccc1N1CCN(C(=S)NCc2ccccc2)CC1,-1%,-4,0.0%,-4%
CCCCc1c(C)[nH]c2nc3ccccc3n2c1=O,-7%,/,-0.8%,-12%
Cc1ccccc1NC(=O)CSc1ccc(-c2cccnc2)nn1,9%,/,-1.1%,-2%
O=C(/C=C/c1ccccc1)Nc1ccc(Br)cn1,-11%,-4,-0.8%,-28%

# The list continues.
# Values run as follows: Rango release inh	GLA inh pH 4.5	Rango complex inh	miR-21 reporter
O=C(CNS(=O)(=O)c1cccc(Br)c1)NCCCc1ccccc1
  -6%	/	-1.8%	10%
O=C(CCN1C(=O)c2ccccc2C1=O)N1CCN(C2c3ccccc3-c3ccccc32)CC1
  -4%	-5	1.7%	-9%
Cc1ccc(N(C(=O)Cn2nnc3ccccc32)C(C(=O)NCc2ccco2)c2ccc(C)o2)cc1 (stereo unspecified)
  2%	?	3.7%	-12%
O=C(NCc1cccnc1)C(=O)NCC1OCCN1S(=O)(=O)c1ccc(F)cc1 (stereo unspecified)
  -4%	2	0.0%	-15%
COc1ccc(NC(=O)NC2(C(=O)N3CCCCC3)CCCCC2)cc1
  10%	/	4.2%	0%
CCCCCc1cc(=O)oc2c(C(CCN3CCCC(C)C3)c3ccc(OC)cc3)c(OC)cc(OC)c12 (stereo unspecified)
  6%	-8	8.2%	25%
O=C(O)C1Cc2ccccc2CN1C(=O)COc1ccc(Cl)cc1 (stereo unspecified)
  -10%	0	-0.8%	0%
CC1CCc2nn(CC(=O)NCCN3CCCCC3C)cc2C1 (stereo unspecified)
  1%	-2	-1.3%	-2%
O=C(N/N=C/c1ccncc1)c1ccc2c(c1)OCO2
  -3%	5	-3.5%	-32%
O=C1C=C(c2cc(Cl)cc(Cl)c2)C[C@@H](c2ccc(F)cc2)C1
  10%	/	0.9%	/
O=C(COc1ccccc1)Nc1cc2c3c(c1)CC(=O)N3CCC2
  15%	/	-0.7%	/
COc1cc(OC)cc(C(=O)NNC(=O)c2ccc3ccccc3n2)c1
  -7%	/	-1.5%	/
CC(C)(C)c1ccc(/C=C(\C#N)C(=O)NCCN2CCOCC2)cc1
  8%	7	-0.8%	3%
CCCc1nnc(SCC(=O)Nc2ccc(OC)cc2)n1N
  -8%	-2	0.0%	-3%
O=C(c1ccncc1)N1CCN(c2ccc(F)cc2)CC1
  7%	6	2.6%	0%
O=C(c1ccc(Cl)nc1)N1CCN(C/C=C/c2ccccc2)CC1
  -18%	10	1.8%	4%
O=c1[nH]cc(N=Cc2cc(Cl)cc(Cl)c2O)c(=O)[nH]1
  ?	/	?	-1%
COc1ccc(NC(=O)CC2C(=O)N(C)C(=S)N2Cc2ccco2)cc1 (stereo unspecified)
  2%	-4	-0.2%	-1%
CN(C)S(=O)(=O)c1ccc(NC(=O)c2cc(-c3cccs3)nc3ccccc23)cc1
  -8%	-1	-1.9%	27%
O=C(CCS(=O)(=O)c1ccccc1)Nc1ccc2c(c1)C(=O)NC2=O
  4%	-3	-3.2%	0%

# (more compounds)
# Values run as follows: Rango release inh	GLA inh pH 4.5	Rango complex inh	miR-21 reporter
O=C(Nc1nnc(C2=COCCO2)o1)c1cccc(Br)c1
  1%	/	0.4%	-4%
Nc1nonc1-n1nnc(C(=O)N/N=C/c2ccccc2Cl)c1CSc1ccccc1
  2%	-3	2.0%	4%
CSCCC(NS(=O)(=O)c1ccc2c(c1)Cc1cc(S(=O)(=O)NC(CCSC)C(=O)O)ccc1-2)C(=O)O (stereo unspecified)
  16%	/	-2.7%	-2%
O=C(Cc1ccccc1[N+](=O)[O-])NCCc1ccc(F)cc1
  -8%	/	-3.0%	-16%
CC[C@H](C)[C@@H]1NC(=O)c2cc([N+](=O)[O-])cc(F)c2NCCCC[C@@H](C(N)=O)NC(=O)[C@H](CCCCN)NC1=O
  1%	-7	-4.4%	-6%
CCOc1ccc(-n2cc(C(=O)c3cc(Cl)ccc3O)cc(C#N)c2=O)cc1
  ?	-6	?	4%
C/C(=C\c1ccccc1)C(=O)Nc1nccs1
  -6%	-11	1.0%	-46%
Cc1cc(Br)ccc1NC(=O)CN(C)C(=O)CCSc1ccc(F)cc1
  -7%	/	?	/
CC1(C)NC(=O)N(CCOc2ccc([N+](=O)[O-])cc2)C1=O
  -2%	-3	-1.9%	-3%
Cc1cc2ccccn2c1C(=O)c1ccccc1F
  8%	/	-3.0%	9%
